# Screens (PubChem BioAssay)
# DUX4 txn inh: blocks DUX4-driven transcriptional activation | activity change, negative = inhibition, % (test concentration not listed) | hit rate 0.8% among 37,000 | AID 1224904 | 293T-iDUX4 ZSCAN4-Gaussia luciferase reporter, 24 h; stronger effect = lower value;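 active means -10% or lower and over 25 points stronger than a control reporter; inconclusive means -10% or lower with a smaller gap; inactive means above -10%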;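 further: 0% = median of neutral control wells and -100% = median of positive control wells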
# DUX4 txn inh difference: second read-out of DUX4 txn inh, no call of its own (marks repeat the call); Gaussia minus Italica difference, %; measured here: selective DUX4 reporter inhibition;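 worked out from the two reporters; negative = selective loss of the DUX4 reporter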
# DUX4 txn inh control: further read-out of DUX4 txn inh, marked with its call; activity change, negative = inhibition, %; measured here: Italica tet-on control reporter;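 0 = neutral control and -100 = positive control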
# Starred values were filed as active, the others as inactive; ? = inconclusive; . = not tested or not shown; & = joins results of further samples; ! = repeats disagree. This is a subset; rates above refer to the full screens.
SMILES	DUX4 txn inh	DUX4 txn inh difference	DUX4 txn inh control
COc1cccc(C(=O)N2C[C@H]3[C@@H](c4ccccc42)[C@@H](CO)N3C(=O)c2ccccc2)c1	5.9	2.0	3.9
O=C(c1ccncc1)N1CC2(C1)[C@H](c1ccccc1)[C@@H](CO)N2C(=O)c1ccncc1	7.7	2.8	5.0
COCC(=O)N1[C@H](CO)[C@H](c2ccc(-c3cccc(OC)c3)cc2)C12CN(C(C)=O)C2	11.7	8.0	3.6
COc1ccccc1-c1ccc2n(c1=O)C[C@@H]1[C@@H](CO)[C@H](C(=O)N3CCOCC3)[C@H]2N1CC1CC1	?	.	.
OC[C@@H]1[C@H](c2ccc(C#Cc3ccccc3F)cc2)[C@@H]2CN(Cc3cncnc3)CCCCN12	-4.9	-3.9	-1.0
C[C@@H]1CCCCO[C@@H](CN(C)Cc2ccc3c(c2)OCO3)[C@@H](C)CN([C@H](C)CO)C(=O)c2cc(N(C)C)ccc2O1	3.3	4.0	-0.7
C[C@H]1COCn2nncc2CC[C@@H](Cc2ccc(-c3ccccc3)cc2)C(=O)N1	-2.2	0.3	-2.5
COc1ccc(S(=O)(=O)N2C[C@H](O)COC[C@H]3O[C@@H](CC(=O)NCCN4CCCCC4)CC[C@@H]32)cc1	-5.3	-6.1	0.8
Cc1noc(C)c1S(=O)(=O)Nc1ccc2c(c1)C(=O)N([C@H](C)CO)C[C@H](C)[C@H](CN(C)C(=O)Nc1ccc3c(c1)OCO3)OCCCC[C@@H](C)O2	1.8	2.4	-0.6
CO[C@H]1CC[C@H]2CCOc3c(C#N)cccc3C(=O)N(C)CC3(CCCCC3)CC(=O)N(C)C[C@@H]1O2	2.3	0.7	1.6
COc1ccc2c3c([nH]c2c1)[C@@H](CO)N(C(=O)C1CCC1)CC31CCN(C(=O)c2ccccn2)CC1	20.9	13.1	7.9
O=C(C[C@H]1CC[C@@H]2[C@H](COC[C@H](O)CN2Cc2ccc(Oc3ccccc3)cc2)O1)N1CCOCC1	?	.	.

# Grouped by structure, those above containing a carbonyl joined to an NH by a bond outside any ring
SMILES	DUX4 txn inh	DUX4 txn inh difference	DUX4 txn inh control
COc1ccc(S(=O)(=O)N2C[C@H](O)COC[C@H]3O[C@@H](CC(=O)NCCN4CCCCC4)CC[C@@H]32)cc1	-5.3	-6.1	0.8
Cc1noc(C)c1S(=O)(=O)Nc1ccc2c(c1)C(=O)N([C@H](C)CO)C[C@H](C)[C@H](CN(C)C(=O)Nc1ccc3c(c1)OCO3)OCCCC[C@@H](C)O2	1.8	2.4	-0.6

# Next section:
SMILES	DUX4 txn inh	DUX4 txn inh difference	DUX4 txn inh control
COc1ccc2c3c(n(C)c2c1)[C@@H](CO)N(C(=O)Nc1ccc(F)cc1)CC31CN(S(=O)(=O)c2cn(C)cn2)C1	27.1	15.4	11.7
CNC[C@H]1OCCCC[C@@H](C)Oc2ccc(NC(=O)Nc3cccc4ccccc34)cc2C(=O)N([C@H](C)CO)C[C@H]1C	-0.9	-0.2	-0.7
C[C@@H]1CN([C@H](C)CO)C(=O)c2cc(N(C)C)ccc2O[C@@H](C)CCCCO[C@@H]1CN(C)C(=O)Nc1ccc(C(F)(F)F)cc1	2.3	1.8	0.4
CO[C@@H]1CN(C)C(=O)c2cc(NC(=O)c3ccc4c(c3)OCO4)ccc2OC[C@@H](C)N(CCC(F)(F)F)C[C@@H]1C	-9.9	-15.8	5.9
C/C=C/c1ccc([C@H]2[C@@H](CO)N3C(=O)CN(C(=O)Nc4ccc(F)cc4)C[C@@H]23)cc1	6.4	8.0	-1.6
COCC(=O)N1CC2(C1)[C@@H](c1ccc(-c3ccc(F)cc3)cc1)[C@@H](CO)N2C(C)=O	6.7	6.4	0.4
COCC#Cc1ccc([C@@H]2[C@H]3CN(C(=O)Nc4cc(F)ccc4F)CC(=O)N3[C@H]2CO)cc1	13.7	4.2	9.5
O=C(NCC(F)(F)F)[C@H]1[C@H](CO)[C@H]2Cn3c(ccc(-c4cccnc4)c3=O)[C@@H]1N2Cc1ccccc1	-2.0	-10.0	8.0
Cc1ccccc1S(=O)(=O)N1[C@H](C#N)[C@@H](c2ccccc2-c2cccc(F)c2)[C@@H]1CO	?	.	.
COc1ccccc1S(=O)(=O)N1CC[C@@H]2[C@@H](CO)Nc3ccc(-c4ccccc4F)cc3[C@@H]21	?	.	.
COc1cccc(NC(=O)N[C@@H]2C=C[C@H](CC(=O)NCc3ccncn3)O[C@H]2CO)c1	-3.3	-3.7	0.4
COc1cccc(-c2ccc3c(c2)O[C@H](CN(C)C(=O)C2CCOCC2)[C@@H](C)CN([C@@H](C)CO)S3(=O)=O)c1	3.4	-2.2	5.6

# Quoted from the listing.
# CO[C@@H]1CN(C)C(=O)c2cc(NC(=O)c3ccc4c(c3)OCO4)ccc2OC[C@@H](C)N(CCC(F)(F)F)C[C@@H]1C – DUX4 txn inh control = 5.9
# CNC[C@H]1OCCCC[C@@H](C)Oc2ccc(NC(=O)Nc3cccc4ccccc34)cc2C(=O)N([C@H](C)CO)C[C@H]1C – DUX4 txn inh difference = -0.2

# Remaining list, next part.
SMILES	DUX4 txn inh	DUX4 txn inh difference	DUX4 txn inh control
C[C@@H]1CN([C@H](C)CO)C(=O)Cc2cc(NC(=O)c3ccncc3)ccc2O[C@H]1CN(C)C(=O)Nc1ccc(F)cc1	-1.3	3.1	-4.4
CCC(=O)N1C[C@H](O)COC[C@@H]2O[C@H](CC(=O)NCc3ccc(Oc4ccccc4)cc3)CC[C@H]21	4.4	-4.5	8.9
COc1cc(CN2CC3(CN(C(C)=O)C3)c3c([nH]c4cc(OC)ccc34)[C@@H]2CO)cc(OC)c1	0.5	-3.0	3.5
C[C@@H]1CCCCO[C@@H](CN(C)C(=O)CCC(F)(F)F)[C@@H](C)CN([C@@H](C)CO)C(=O)c2cc(NC(=O)C3CCCCC3)ccc2O1	2.4	2.2	0.2
Cc1cccc(S(=O)(=O)N2CCCCN3[C@H](CO)[C@H](c4ccc(C#C[C@@H](C)O)cc4)[C@H]3C2)c1	5.2	17.9	-12.6
COc1ccccc1-c1ccc2c(c1)O[C@@H](CN(C)C(=O)Nc1cccc(F)c1)[C@H](C)CN([C@H](C)CO)S2(=O)=O	3.3	1.9	1.4
CO[C@H]1CN(C)C(=O)c2cc(NS(C)(=O)=O)ccc2OC[C@H](C)N(C(=O)CC2CC2)C[C@@H]1C	-1.0	-2.5	1.5
C[C@H]1CN([C@@H](C)CO)C(=O)c2cc(NS(=O)(=O)c3cccs3)ccc2O[C@@H]1CN(C)S(=O)(=O)c1ccc(Cl)cc1	-2.9	-1.7	-1.2
CO[C@H]1CN(C)C(=O)c2ccc(NC(=O)NC(C)C)cc2OC[C@@H](C)N(CC2CC2)C[C@@H]1C	1.1	0.6	0.5
CCCC(=O)Nc1ccc2c(c1)C(=O)N(C)[C@H]1CC[C@@H](CC(=O)NCCc3ccncc3)O[C@@H]1CO2	2.2	1.6	0.6
C/C=C/c1ccc([C@H]2[C@@H](CO)N(CCC(F)(F)F)C23CN(C(=O)CC2CC2)C3)cc1	?	.	.
O=S(=O)(c1cccc(F)c1)N1CC[C@H]2[C@H](CO)Nc3ccc(C#Cc4cccc(F)c4)cc3[C@H]21	-4.1	-10.1	6.0
C[C@@H]1CN([C@@H](C)CO)C(=O)c2cc(NC(=O)Nc3cccc4ccccc34)ccc2O[C@@H](C)CCCCO[C@@H]1CN(C)S(=O)(=O)c1cn(C)cn1	0.4	-2.8	3.3
CN1c2ccc(-c3ccccc3)cc2[C@H]2[C@H](CCN2C(=O)Cc2cccnc2)[C@@H]1CO	6.0	-3.6	9.6
O=C(O)C[C@H]1C[C@H]2c3cc(NC(=O)CC4CC4)ccc3O[C@H]2[C@H](CO)O1	4.2	2.1	2.1
COc1ccc(-c2ccc(C3[C@H]4CNC[C@@H]3N4Cc3ccc4c(c3)OCO4)cc2)cc1 (some centres not stated)	19.5&0.5	52.5&4.6	-33.0&-4.1
O=C(C[C@@H]1CC[C@H]2[C@@H](COC[C@@H](O)CN2S(=O)(=O)c2ccc(F)cc2)O1)NCC1CC1	3.1	-0.6	3.7
N#C[C@@H]1[C@H](c2ccc(C3=CCCCC3)cc2)[C@H](CO)N1C(=O)Nc1ccccc1F	1.6	1.2	0.4
COCc1cn(CC[C@@H]2CC[C@@H](NC(=O)c3ccc(F)cc3)[C@H](CO)O2)nn1	2.3	2.7	-0.5
O=C(C1CCCCC1)N1CC(=O)N2[C@H](CO)[C@H](c3ccc(-c4ccccc4F)cc3)[C@H]2C1	12.1	-5.5	17.6
C[C@@H]1CN([C@@H](C)CO)C(=O)c2cccc(NC(=O)Nc3ccc4c(c3)OCO4)c2O[C@H]1CN(C)S(C)(=O)=O	-2.3	0.2	-2.5
COc1ccccc1S(=O)(=O)N(C)C[C@H]1OCc2cnnn2CCCC(=O)N([C@H](C)CO)C[C@H]1C	4.0	1.5	2.5
O=C(NC[C@@H]1[C@H](c2ccccc2)[C@H](CO)N1Cc1ccccn1)C1CC1	1.3	-0.6	1.9
O=C(NC[C@@H]1[C@H](c2ccccc2)[C@@H](CO)N1Cc1cccnc1)c1ccccn1	1.6	1.3	0.2

# Four records picked at random from those above:
SMILES	DUX4 txn inh	DUX4 txn inh difference	DUX4 txn inh control
COCc1cn(CC[C@@H]2CC[C@@H](NC(=O)c3ccc(F)cc3)[C@H](CO)O2)nn1	2.3	2.7	-0.5
COc1ccccc1S(=O)(=O)N(C)C[C@H]1OCc2cnnn2CCCC(=O)N([C@H](C)CO)C[C@H]1C	4.0	1.5	2.5
C[C@@H]1CN([C@@H](C)CO)C(=O)c2cccc(NC(=O)Nc3ccc4c(c3)OCO4)c2O[C@H]1CN(C)S(C)(=O)=O	-2.3	0.2	-2.5
O=C(NC[C@@H]1[C@H](c2ccccc2)[C@@H](CO)N1Cc1cccnc1)c1ccccn1	1.6	1.3	0.2

# (further entries)
SMILES | DUX4 txn inh | DUX4 txn inh difference | DUX4 txn inh control
COc1cccc(NC(=O)N[C@H]2C=C[C@H](CC(=O)N3CCOCC3)O[C@H]2CO)c1 | 1.5 | 1.0 | 0.5
CCCNC(=O)Nc1ccc2c(c1)OC[C@@H](C)N(C(=O)C1CCOCC1)C[C@H](C)[C@@H](OC)CN(C)C2=O | 15.4 | 9.1 | 6.3
O=C(C[C@@H]1C[C@@H]2c3cc(NS(=O)(=O)c4ccccc4)ccc3O[C@@H]2[C@H](CO)O1)NCC(F)(F)F | 2.9 | -1.3 | 4.2
CCC(=O)N1C[C@@H](C)[C@H](OC)CN(C)C(=O)c2ccc(NC(=O)C3CCOCC3)cc2OC[C@H]1C | 2.2 | 1.9 | 0.4
C[C@H](CO)N1C[C@H](C)[C@@H](CN(C)C(=O)CCC(F)(F)F)OCc2ccccc2-c2c(n(C)c3ccccc23)C1=O | ? | . | .
CO[C@H](CN(C)Cc1cc(F)ccc1F)[C@@H](C)CN([C@@H](C)CO)S(=O)(=O)c1ccc(C)cc1 | ? | . | .
CC=Cc1ccc2n(c1=O)C[C@H]1[C@H](CO)[C@@H](C(=O)N3CCCCC3)N(C(=O)CC)[C@@H]21 (mixture of isomers) | -1.7 | -0.4 | -1.3
C[C@@H]1CN([C@@H](C)CO)C(=O)c2c(c3ccccc3n2C)-c2ccccc2CO[C@@H]1CN(C)C(=O)CCN(C)C | 3.3 | 2.4 | 0.9
CCCC#Cc1cnc2c(c1)C(=O)N([C@H](C)CO)C[C@@H](C)[C@H](CN(C)C(=O)Nc1cc(F)ccc1F)O2 | 4.7 | 5.6 | -0.9
C[C@@H]1CN([C@@H](C)CO)C(=O)c2cc(C3=CCCCC3)cnc2O[C@H]1CN(C)S(=O)(=O)c1cn(C)cn1 | 0.9 | -5.5 | 6.4
CCCNC(=O)[C@H]1[C@H](CO)[C@H]2Cn3c(ccc(-c4ccc(F)cc4)c3=O)[C@H]2N1C | -8.3 | -3.5 | -4.7
C[C@H](CO)N1C[C@H](C)[C@@H](CN(C)C(=O)NC2CCCCC2)Oc2ccc(NC(=O)CCN3CCOCC3)cc2CC1=O | -1.5 | 1.3 | -2.9
CN1C(=O)c2cc(NS(=O)(=O)c3ccc(Cl)cc3)ccc2OC[C@H]2O[C@@H](CC(=O)N3CCc4ccccc4C3)CC[C@@H]21 | -4.4 | -3.2 | -1.2
CCN(C[C@H]1N[C@H](CO)[C@@H]1c1ccc(-c2ccc(F)cc2)cc1)C(=O)COC | -3.6 | -4.1 | 0.4
CC=Cc1ccc2n(c1=O)C[C@H]1[C@H](CO)[C@@H](C(=O)NCc3ccccc3F)N(S(C)(=O)=O)[C@@H]21 (mixture of isomers) | 2.3 | -4.2 | 6.5
O=C(NCC[C@H]1CC[C@@H](NS(=O)(=O)Cc2ccccc2)[C@@H](CO)O1)C1CCCCC1 | -6.9 | -6.1 | -0.8
COc1cccc(CN2C[C@@H]3N[C@H](C2)C3c2ccc(-c3ccccc3F)cc2)c1 (some centres not stated) | -19.0*! | -31.8*! | 12.7*!
CCNC(=O)C[C@@H]1CC[C@@H]2[C@H](COC[C@H](O)CN2C(=O)Nc2ccc(C(F)(F)F)cc2)O1 | 8.8 | 0.2 | 8.6
C[C@@H]1CN([C@H](C)CO)C(=O)c2ccccc2-c2ccccc2CO[C@@H]1CN(C)C(=O)[C@H](C)c1ccccc1 | 4.1 | 6.8 | -2.6
COc1cccc(S(=O)(=O)N2C[C@@H](O)COC[C@H]3O[C@H](CC(=O)NCCCN4CCOCC4)CC[C@@H]32)c1 | 7.1 | 0.4 | 6.6
CS(=O)(=O)Nc1ccc2c(c1)[C@@H]1C[C@@H](CC(=O)NCc3ccc(Cl)cc3)O[C@@H](CO)[C@@H]1O2 | ? | . | .
CCC(=O)N1Cc2cc(C(=O)Nc3nccs3)nc(-c3cccc(-c4ccccc4OC)c3)c2[C@H]1CCO | -0.6 | -0.8 | 0.2
CC=Cc1ccc2n(c1=O)C[C@@H]1[C@@H](CO)[C@H](C(=O)Nc3ccccc3)[C@H]2N1C(=O)CC1CC1 (mixture of isomers) | -8.6 | -8.8 | 0.2
COc1ccc(C#Cc2ccc([C@@H]3[C@@H](CO)N4CCCCN(C(=O)c5ccncc5)C[C@H]34)cc2)cc1 | ? | . | .
